Source: PubChem
Mtb growth – Mycobacterium tuberculosis H37Rv growth inhibition, cell based, confirmatory dose response (AID 1949) | most inactive calls were filed without a number and no value below 0 was filed | inhibition, % at 10 µg/mL, or IC50 in µg/mL where a hit was titrated | 1.6% of 100,000 active | M. tuberculosis H37Rv growth inhibition;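 active = confirmed in a dose series; inconclusive = about 50% or more but not retested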;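 also: bacteria grown 7 days with compound before Alamar blue readout; 0% = untreated bacteria and 100% = reference antibiotic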
* = called active by the depositor; i = inactive; ? = inconclusive. An excerpt; count on the stated rates, not on these rows.

SMILES	Mtb growth
COc1ccc(CNC(=O)c2sc3nc(-c4cccs4)ccc3c2N)cc1	i
CC(C)(C)c1cc(N)n(-c2ccc(C(=O)O)cc2)n1	i
N/C(=N\O)c1ccc(NC(=O)c2ccc3c(c2)OCO3)cc1	i
CCOc1ccc(Cl)cc1S(=O)(=O)NC1CCCCCC1	i
O=C(NCc1ccccc1)c1ccc(-c2cccc([N+](=O)[O-])c2)o1	i
CS(=O)(=O)N(CC(=O)Nc1ccc(S(=O)(=O)N2CCOCC2)cc1)c1ccccc1Cl	i
Cc1cccc(NC(=O)c2ccc(S(=O)(=O)N3CCCC3)cc2)c1	2%
Cn1cccc1/C=C(/C#N)c1ccc(Br)cc1	i
O=S(=O)(C(=CNc1ccc(N2CCOCC2)cc1)S(=O)(=O)c1ccccc1)c1ccccc1	i
CCOC(=O)c1cnc2c(C)c(Cl)ccc2c1N1CCOCC1	i
CCSc1nnc(C)c2ccccc12	i
Cc1cc(Br)cc(C)c1OC(=O)C(C)(C)C	4%
Cc1nc(NC(=O)c2sc3ccccc3c2Cl)ccc1I	i
N#Cc1c(NC(=O)CSc2nc(O)c(Cc3ccccc3)c(=O)[nH]2)sc2c1CCCCCC2	i
CN(c1ccc(C(=O)NCc2ccco2)cc1)S(C)(=O)=O	i
Cc1ccsc1C1CC(c2cccs2)=NN1S(C)(=O)=O (stereo unspecified)	1%
COc1cccc(C(=O)Nc2cccc(-c3nnc(-c4ccco4)o3)c2)c1	i
CSc1ccc(/C=C(/C#N)c2ccc(C(=O)O)cc2)cc1	i
S=C(Nc1ccc2c(c1)OCO2)Nc1ccc(Br)cn1	i
CCOC(=O)c1ccc(NC(=S)NC2CCN(Cc3ccccc3)CC2)cc1	24%
CCOc1ccccc1C=NN1CCN(Cc2ccccc2Cl)CC1	i
COc1ccc(CC(=O)NCc2nnc(SCC(=O)Nc3c(C)cc(C)cc3C)n2C)cc1	i
O=c1oc(/C=C/c2ccccc2)nc2scc(-c3cccs3)c12	1%
COc1ccc(NC(=O)c2cccc(-c3cc4ccccc4oc3=O)c2)cc1[N+](=O)[O-]	i
COc1cccc(-c2cc(C(=O)N3CCN(Cc4ccccc4)CC3)c3ccccc3n2)c1	i
CCCc1nnc(N2C(=O)c3cccc4cccc(c34)C2=O)s1	i
O=C1CCCC2=C1C(c1ccc(Br)cc1)Nc1ccccc1N2 (stereo unspecified)	i
CC1(C)CC(=O)N(c2ccccc2)C1(C)O (stereo unspecified)	0%
CCCc1cc(=O)oc2c(C)c(OC(C)c3ccccc3)ccc12 (stereo unspecified)	i
COc1ccc(C2OC(=O)C(C)(C)C(=O)C2(C)C)cc1OC (stereo unspecified)	i
CCOc1cc(S(=O)(=O)NCc2ccccc2)ccc1F	3%
O=C(Nc1c(F)cc(F)cc1Br)c1nn2cccnc2c1Cl	1%
CCN1CCN(CCCCOc2ccccc2OCc2ccccc2)CC1	i
O=C(CSc1ncnc2sc3c(c12)CCCC3)c1ccccc1	i
CCN(CC)c1ccc(NC(=O)c2c(-c3ccccc3)noc2C)cc1	i
COc1ccc(-c2csc3ncn(Cc4c(F)cccc4Cl)c(=O)c23)cc1	i
COc1ccccc1C(=O)NC(=S)N1CCc2ccccc21	1%
O=C(Nc1cc(C(F)(F)F)ccc1F)C1CCCCC1	i
CN(C)c1ccc(NC(=O)c2c(F)c(F)c(F)c(F)c2F)cc1	i
CCn1c(SCc2cccc(Br)c2)nc2ccccc2c1=O	10%
Cc1c(C)c2cc(Cl)c(OCC(=O)c3cccc([N+](=O)[O-])c3)cc2oc1=O	i
CCOC(=O)c1ccc(Oc2c(C(F)(F)F)oc3cc(OC(=O)N(C)C)ccc3c2=O)cc1	i
CC(=O)c1cccc(NC(=O)CN(Cc2ccc(Cl)cc2)S(=O)(=O)c2ccc(Cl)cc2)c1	i
N#CC1=C(SCC(=O)NC2CCCCC2)NC(=O)CC1c1ccccc1F (stereo unspecified)	i
COc1ccc(NC(=O)Nn2cnnc2)cc1OC	i
CCOc1cccc(-c2cc(C(=O)NCc3ccc4c(c3)OCO4)c3ccccc3n2)c1	i
O=C(CN(c1ccccc1F)S(=O)(=O)c1ccccc1)Nc1ccccc1C(=O)NCc1ccco1	i
COCc1cc(C)nc(NCCc2ccccc2)c1C#N	4%
Cc1ccc(NC(=O)c2ccccc2C)cc1	i
COc1cc(NC(=S)N2CCN(C)CC2)cc(OC)c1	i
CCn1c(CC(=O)Nc2ccc(Cl)c(Cl)c2)nnc1SCC(=O)Nc1ccc([N+](=O)[O-])cc1C	i
COc1ccc(C)cc1S(=O)(=O)N1CCN(c2ccc(C)c(C)c2)CC1	0%
CCc1ccc(N/C(=N\c2nc(C)cc(C)n2)NC(=O)Nc2cccc(Cl)c2)cc1	i
CCC(=O)N1N=C(c2c(-c3ccccc3)c3cc(Cl)ccc3[nH]c2=O)CC1c1ccc(N(C)C)cc1 (stereo unspecified)	35%
CCOc1ccc(N2CC(C(=O)Nc3ccccc3CC)CC2=O)cc1 (stereo unspecified)	i
Cc1ccc2oc(-c3ccc(NC(=S)NC(=O)c4cccs4)cc3O)nc2c1	i
CSc1ccc(-c2nnn(CC(=O)Nc3ccc4c(c3)OCO4)n2)cc1	i
O=C1CC(N2CCCCCC2)C(=O)N1c1ccc(F)cc1 (stereo unspecified)	i
COc1ccc(Nc2nc(N3CCC(C)CC3)nc(C)c2[N+](=O)[O-])cc1	0%
CCOc1cccc(C(=O)Nc2cccc(-c3nnc(-c4ccccc4)o3)c2)c1	i

Structures listed so far that contain a COOH group:
SMILES	Mtb growth
CC(C)(C)c1cc(N)n(-c2ccc(C(=O)O)cc2)n1	i
CSc1ccc(/C=C(/C#N)c2ccc(C(=O)O)cc2)cc1	i

The list continues:
SMILES	Mtb growth
O=C(CCN1C(=O)c2ccccc2C1=O)Nc1nnc(SCc2ccccc2)s1	2%
O=C(CSc1ccccn1)Nc1ccccc1-c1ccccc1	14%
CCOC(=O)N1CCN(c2nc3c([nH]2)c(=O)n(C)c(=O)n3C)CC1	i
CCCS(=O)(=O)N1CCN(S(=O)(=O)c2ccc(Cl)cc2)CC1	2%
O=c1c2c3c(sc2ncn1-c1cccc(Br)c1)CCCCC3	9%
NCCNCCCOc1ccc(OCc2ccccc2)cc1	i
N/C(Cc1ccc(Cl)cc1Cl)=N\OC(=O)Cc1ccccc1	i
Cc1cc2nc(-c3cc(NC(=S)NC(=O)c4ccco4)ccc3Cl)oc2cc1C	i
N#Cc1c(N2CCCCCC2)ncc2cc3ccccc3nc12	i
COc1cc(NC(=S)NC(=O)c2cc(Cl)c(OC)c(Cl)c2)ccc1NC(=O)c1cc2ccccc2o1	i
COc1ccc(-n2nc3ccc(NC(=O)c4ccc(C)c(C)c4)cc3n2)cc1	i
COc1ccc(S(=O)(=O)Nc2ccc(F)cc2F)cc1C	2%

Reprinted from the part before: six compounds, then new ones.
SMILES	Mtb growth
N/C(Cc1ccc(Cl)cc1Cl)=N\OC(=O)Cc1ccccc1	i
Cc1cc2nc(-c3cc(NC(=S)NC(=O)c4ccco4)ccc3Cl)oc2cc1C	i
N#Cc1c(N2CCCCCC2)ncc2cc3ccccc3nc12	i
COc1cc(NC(=S)NC(=O)c2cc(Cl)c(OC)c(Cl)c2)ccc1NC(=O)c1cc2ccccc2o1	i
COc1ccc(-n2nc3ccc(NC(=O)c4ccc(C)c(C)c4)cc3n2)cc1	i
COc1ccc(S(=O)(=O)Nc2ccc(F)cc2F)cc1C	2%
CCOc1ccc(-n2c(-c3ccc(Cl)cc3)n[nH]c2=S)cc1	1%
CCn1c(SCC(=O)Nc2cc(C(F)(F)F)ccc2Cl)nnc1-c1ccc(C)cc1	i
COCCSc1nnc(NC(=O)c2ccc3c(c2)OCO3)s1	0%
Cc1ccc(-c2cc(C(F)(F)F)c(C#N)c(SCCC#N)n2)o1	i
CCOc1ccc(NC(=O)CN2C(=O)C3C4C=CC(C5CC45)C3C2=O)cc1 (stereo unspecified)	i
O=C(Nc1ccc(Oc2ccc(Cl)cc2)cc1)c1cc(I)ccc1Cl	3%
Cc1cccc(NC(=O)Cn2cnc3scc(-c4ccccc4)c3c2=O)c1C	i
CCCCC(=O)Nc1cccc(NC(=S)NC(=O)COc2ccccc2Cl)c1	i
COc1cc(/C=C\c2[nH]c(=O)[nH]c(=O)c2[N+](=O)[O-])cc(I)c1OCc1ccccc1F	i
CCOC(=O)c1cccc(NC(=O)c2ccc3c(c2)OCO3)c1	18%
O=C(Nc1ccc(F)c(Cl)c1)C1CCN(C(=O)c2ccc(F)cc2)CC1	i
Cc1ccc(C(=O)O)cc1S(=O)(=O)NCCCC(=O)O	i
COc1cc(/C=C/C(=O)O)cc(S(=O)(=O)N2CCc3ccccc32)c1OC	0%
COc1ccc(C(=O)Nc2ccccc2C(=O)NC(Cc2ccccc2)C(=O)NC(C)C)cc1 (stereo unspecified)	i
S=C(NCCN1CCCCC1)NCc1ccccc1	14%
O=C(COc1cc(Cl)c(Cl)cc1Cl)N1CCCC1	3%
Cc1ccc(C(C)C)c(OCCSc2nc3ccccc3c(=O)[nH]2)c1	0%
COc1ccc(Cl)cc1NC(=O)CSc1nnc(-c2ccccc2Cl)n1C	i
Nc1nc(N2CCOCC2)nc(N2CCOCC2)c1[N+](=O)[O-]	i
COc1ccc(OC)c(S(=O)(=O)Nc2cnc3ccccc3c2)c1	i
COc1ccc(C2CC(=O)C3=C(C2)Nc2ccccc2NC3c2cccnc2)cc1 (stereo unspecified)	1%
CCOC(=O)C1=NN(c2ccc(Cl)cc2)C2(S1)SC(C(C)=O)=C(C)N2c1ccccc1 (stereo unspecified)	i
NC(=O)c1c(NC(=O)c2ccc3c(c2)OCO3)sc2c1CCCCC2	i
CCOC(=O)C1CCN(C(=O)C(Cl)(Cl)Cl)CC1	2%
Cc1cc(C)c(NC(=O)COc2ccc(-n3cnnn3)cc2)c(C)c1	i
Cc1ccc(S(=O)(=O)N(CC(=O)NCc2ccccc2)Cc2cccc(C)c2)cc1	5%
CCOC(=O)c1c(-c2ccc(F)cc2)csc1NC(=O)C(C)(C)C	11%
Cc1cc(F)ccc1NC(=O)c1nc2ncccn2n1	i
COC(=O)c1ccc(NS(=O)(=O)c2ccc(C)cc2C)cc1	1%
CC(=O)N1CCc2cc(NC(=O)C(c3ccccc3)c3ccccc3)ccc21	i
O=C(CN1C(=O)c2ccccc2C1=O)NCC1COc2ccccc2O1 (stereo unspecified)	2%
CCN1CCN(C(=O)C(C)N(c2ccc(Oc3ccccc3)cc2)S(C)(=O)=O)CC1 (stereo unspecified)	i
N/C(=N/S(=O)(=O)c1ccccc1)c1cccc([N+](=O)[O-])c1	i
CCOc1ccccc1OCC(=O)Nc1sc2c(c1C#N)CCC(C)C2 (stereo unspecified)	i
COc1ccc(NS(=O)(=O)c2ccc(OCC(=O)N3CCCC3)cc2)cc1	i
C=CCc1cccc(Cl)c1OCCN1CCOCC1	i
Cc1c(Sc2nc3ccccc3s2)c(=O)[nH]c2cc3c(cc12)OCO3	i
Cc1ccccc1OCC(=O)Nc1ccccc1C(=O)Nc1ccccc1	2%
Cn1cccc1CNCc1cccnc1	0%
Cc1c(CC(=O)O)c(=O)oc2cc(OCc3ccc(Br)cc3F)ccc12	i
O=C(COc1ccc(S(=O)(=O)NC2CCCC2)cc1)Nc1ccc(Br)cc1F	i
C=CCn1c(SCC(=O)Nc2cccc(Cl)c2C)nc2sc(C)c(C)c2c1=O	i
Cc1ccc(C(=O)Nc2ncc(Cc3ccc(Cl)c(Cl)c3)s2)cc1	i
Nc1nonc1-c1nc2ccccc2n1CC(=O)NCc1ccccc1	i
c1ccc(-c2noc(-c3ccc4ccccc4c3)n2)nc1	1%
O=C(COc1ccccc1Cl)NC(=S)Nc1cccc(C(=O)O)c1	i
O=c1c2ccccc2nc(Cc2ccccc2)n1-c1ccccc1O	i
CCCOc1ccc(C(=O)NC)cc1OC	i

Part of the list above in order of molar mass, ascending.
SMILES	Mtb growth
CCCOc1ccc(C(=O)NC)cc1OC	i
O=c1c2ccccc2nc(Cc2ccccc2)n1-c1ccccc1O	i
Cc1ccccc1OCC(=O)Nc1ccccc1C(=O)Nc1ccccc1	2%
Cc1c(Sc2nc3ccccc3s2)c(=O)[nH]c2cc3c(cc12)OCO3	i

Remaining list, next part
SMILES	Mtb growth
C=CCn1c(SC(C)C)nc2ccc(I)cc2c1=O	1%
CN1CCN(c2ccc(NC(=O)COc3cccc4ccccc34)cc2)CC1	?
COc1ccc(C(C)NC(=O)c2cccs2)cc1OC (stereo unspecified)	i
CCc1c(C(=O)Nc2ccc(OC)c(Cl)c2)csc1C	i
COc1ccc(OC)c(NC(=S)N2CCN(Cc3ccc4c(c3)OCO4)CC2)c1	i
CCc1ccc(NC(=O)Cn2cnc3sc(C)c(C)c3c2=O)cc1	i
COC(=O)c1cn(C(=O)COc2ccccc2C)c2ccccc12	i
O=Cc1cccn1-c1ccc2ccccc2c1	i
CCCCNCCCCOc1ccc(C)cc1Br	48%
Cn1c(CCNC(=O)c2ccccc2)nc2ccccc21	2%
COc1ccc(-c2nnc(SCC(=O)Nc3nc(-c4ccccc4)cs3)o2)cc1	i
O=C(COc1ccccc1CO)Nc1ccccc1	i
O=C(NC1CCCC1)c1ccccc1-c1nc2ccccc2[nH]1	i
Cc1ccc(C(=O)Nc2ccc(NC(=O)C(C)C)cc2)c(C)c1	3%
COc1cc(OC)cc(-c2cn[nH]c2N)c1	i
CNC(=S)Nc1ccc(Cl)c(C(F)(F)F)c1	i
CCOC(=O)Nc1cccc(NS(C)(=O)=O)c1	i
COC(=O)c1sc2cc(NC(=S)Nc3ccc4c(c3)OCCO4)ccc2c1Cl	i
CCCn1cnc2sc(-c3ccccc3)cc2c1=O	i

In a second layout: entries from further up
compound | Mtb growth
CCOC(=O)c1cnc2c(C)c(Cl)ccc2c1N1CCOCC1 | i
CCSc1nnc(C)c2ccccc12 | i
